Vaccinia stage = Vaccinia orthopox stage-specific inhibition. actives 0.01% (n = 89,000). Vaccinia-infected cells, mCherry/Venus stage reporter fluorescence; hits give low values; some inactives read as strong as hits. activity change (mCherry), % (concentration not given with the values);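 active = mCherry past -33% and 40 or more points under the early reporter, replicates agreeing; inconclusive = past -33% without that gap or agreement; tested in A549 cells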;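 also: scaled between vehicle wells and reference inhibitor wells; 23 nL library stock went into each well; one replicate is shown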
Vaccinia stage Venus = further read-out of Vaccinia stage, marked with its call; activity change (Venus), %; measured here: Venus reporter, other viral stage;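 negative = less Venus signal; first of two replicates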
An asterisk follows results filed as active; ? = inconclusive; nt = no result given; & = joins results of further samples. A portion of the library (hit frequency here may not be typical).

SMILES | Vaccinia stage | Vaccinia stage Venus
C[C@@H]1CN([C@@H](C)CO)C(=O)CCCn2nncc2CO[C@@H]1CN(C)C(=O)c1ccc(N2CCN(C)CC2)cc1 | 1.1&13.0 | -2.7&14.8
C[C@@H]1CN([C@@H](C)CO)C(=O)c2cc(NC(=O)Nc3ccc(F)cc3)ccc2O[C@H]1CN(C)Cc1ccc2c(c1)OCO2 | -26.8 | -12.3
CC(C)c1cn(CC[C@@H]2CC[C@@H](NC(=O)C3CCC3)[C@H](CO)O2)nn1 | -2.1 | -5.4
C[C@H](CO)N1C[C@H](C)[C@@H](CN(C)C(=O)c2ccccc2F)Oc2ncc(-c3ccc(F)cc3)cc2C1=O | -8.7 | -6.6
C/C=C/c1ccc([C@H]2[C@@H](CO)N[C@@H]2CN(Cc2cccnc2)C(=O)C2CC2)cc1 | -8.8 | 7.9
COc1ccc(NC(=O)O[C@@H](c2ccc(OC)c(O)c2)[C@H](CCO)OC)cc1 | 30.7 | 13.6
CCC(=O)N(C)C[C@H]1Oc2cc(-c3ccccc3OC)ccc2S(=O)(=O)N([C@@H](C)CO)C[C@H]1C | 9.6 | 3.1
C[C@@H]1CCCCO[C@@H](CN(C)C(=O)Nc2ccccc2)[C@H](C)CN([C@@H](C)CO)C(=O)c2cc(NC(=O)Nc3ccccc3)ccc2O1 | 1.4 | 5.1
C/C=C/c1ccc([C@@H]2[C@@H](CO)N(c3ncc(CC)s3)[C@H]2C#N)cc1 | -10.0 | -18.3
C[C@@H]1CN([C@H](C)CO)C(=O)c2cc(NC(=O)Nc3ccccc3)ccc2O[C@H]1CN(C)Cc1ccc(-c2ccccc2)cc1 | ? | nt
CN(C)CC(=O)N[C@@H]1CC[C@@H](CCNC(=O)C2CCCC2)O[C@@H]1CO | -4.4 | 7.6
CCC(=O)N1[C@@H]2c3ccc(C4=CCCCC4)c(=O)n3C[C@H]1[C@H](CO)[C@H]2C(=O)N[C@@H](C)c1ccccc1 | 0.9 | -6.3
CO[C@H]1CN(C)C(=O)c2ccc(NS(C)(=O)=O)cc2OC[C@@H](C)N(C(=O)C2CCCCC2)C[C@H]1C | 26.1 | 20.8
Cc1noc(C)c1S(=O)(=O)Nc1ccc2c(c1)C(=O)N([C@H](C)CO)C[C@@H](C)[C@@H](CN(C)S(=O)(=O)c1c(C)noc1C)OCCCC[C@H](C)O2 | -12.3 | -14.7
COCC#Cc1ccc2c(c1)O[C@H](CN(C)C(=O)C1CCC1)[C@@H](C)CN([C@H](C)CO)S2(=O)=O | 9.4 | 3.5
O=C(N1CCOCC1)[C@@]1(Cc2ccccc2)N=C(c2ccc(OCCCO)cc2)O[C@H]1c1ccccc1 | -34.1 | -19.8
CCCC(=O)N1CC2(C1)CN(C(=O)C1CC1)[C@H](CO)c1[nH]c3cc(OC)ccc3c12 | 15.9 | 8.5
CCCC(=O)N1CC2(C1)CN(Cc1ccccc1F)[C@@H](CO)c1c2c2ccc(OC)cc2n1C | 2.3 | -1.1
C[C@@H]1CCCCO[C@@H](CN(C)Cc2ccc(C(=O)Nc3ccccc3N)cc2)[C@@H](C)CN([C@H](C)CO)C(=O)c2cc(NS(=O)(=O)c3cccs3)ccc2O1 | 15.4 | 13.6
CCC(=O)N1CC2(CN(Cc3ccc(Cl)cc3)C2)c2c(n(C)c3cc(OC)ccc23)[C@@H]1CO | ? | nt
COc1ccc(S(=O)(=O)N(C)C[C@@H]2Oc3ccc(NS(C)(=O)=O)cc3CC(=O)N([C@@H](C)CO)C[C@H]2C)cc1 | 13.6 | 20.5
CN(C)c1ccc2c(c1)[C@@H]1C[C@@H](CC(=O)N3CCOCC3)O[C@@H](CO)[C@@H]1O2 | 27.8 | 28.7
COc1ccc(S(=O)(=O)Nc2ccc3c(c2)CC(=O)N([C@H](C)CO)C[C@H](C)[C@@H](CN(C)C(=O)Nc2cccc4ccccc24)O3)cc1 | 13.5 | 11.4
C[C@@H](NC(=O)[C@@H]1[C@@H](CO)[C@@H]2Cn3c(cccc3=O)[C@@H]2N1CC1CCCCC1)c1ccccc1 | -26.4 | -23.1
COC(=O)C[C@H]1CC[C@H]2[C@@H](COc3ccc(NC(=O)Nc4ccc(C#N)cc4)cc3C(=O)N2C)O1 | 6.5 | 11.1
SMILES | Vaccinia stage | Vaccinia stage Venus
C[C@H](CO)N1C[C@H](C)[C@H](CN(C)Cc2cccc(O)c2)OCc2ccccc2-c2c(n(C)c3ccccc23)C1=O | 10.5 | 3.8
COCC(=O)N1CC(=O)N2[C@H](CO)[C@H](c3ccc(C#CC(C)C)cc3)[C@H]2C1 | 6.0 | 2.2
C[C@H]1CN([C@@H](C)CO)C(=O)c2cc(/C=C/c3ccccc3)cnc2O[C@@H]1CN(C)C(=O)c1cnccn1 | 14.3 | 3.1
COc1cccc(C(=O)Nc2ccc3c(c2)C(=O)N(C)C[C@@H](OC)[C@H](C)CN(C(=O)C2CCCC2)[C@@H](C)CO3)c1 | -23.7 | -19.7
C[C@@H]1CN([C@@H](C)CO)C(=O)c2cccc(NC(=O)c3nc4ccccc4s3)c2O[C@@H]1CN(C)Cc1ccccc1 | ? | nt
COc1cccc(S(=O)(=O)N[C@@H]2CC[C@@H](CC(=O)NCc3ccc(Cl)cc3)O[C@@H]2CO)c1 | -8.3 | -11.5
O=C(C[C@@H]1CC[C@H]2[C@@H](COC[C@H](O)CN2C(=O)Nc2cc(Cl)cc(Cl)c2)O1)NCC1CCCCC1 | ? | nt
COc1ccc2c3c([nH]c2c1)[C@@H](CO)N(C(=O)C1CCOCC1)CC31CCN(C(=O)NC(C)C)CC1 | 16.2 | 13.5
C[C@H](CO)N1C[C@H](C)[C@H](CN(C)Cc2ccccn2)Oc2ncc(C#Cc3ccccc3)cc2C1=O | -6.1 | -6.8
COc1ccc(CN(C)C[C@H]2Oc3ccc(NS(=O)(=O)c4ccc(OC)cc4)cc3CC(=O)N([C@@H](C)CO)C[C@@H]2C)cc1 | -11.2 | -1.6
C[C@H](CO)N1C[C@H](C)[C@@H](CN(C)S(=O)(=O)c2cn(C)cn2)Oc2cc(Br)ccc2S1(=O)=O | 3.4 | -5.0
CN(C)CC(=O)N1[C@@H](C#N)[C@@H](c2ccc(C#CC3CCCCC3)cc2)[C@@H]1CO | -17.0 | -3.6
COc1cccc(C(=O)Nc2ccc3c(c2)C(=O)N(C)[C@H]2CC[C@H](CC(=O)N[C@@H](C)c4ccccc4)O[C@H]2CO3)c1 | -21.1 | -23.7
C[C@@H]1CN([C@H](C)CO)C(=O)Cc2cc(NS(=O)(=O)c3ccc(Cl)cc3)ccc2O[C@@H]1CN(C)C | 15.1 | 5.3
C#CCNC(=O)C1=C[C@@H](c2ccc(Br)cc2)C[C@@H](OCc2ccc(CO)cc2)O1 | -21.1 | -15.0
CO[C@H]1CN(C)C(=O)c2ccc(NS(C)(=O)=O)cc2OC[C@H](C)N(Cc2nccs2)C[C@H]1C | 22.9 | 21.6
Cc1ccc(S(=O)(=O)NCC[C@H]2CC[C@@H](NC(=O)c3ccccn3)[C@H](CO)O2)cc1 | 7.1 | 5.1
COc1ccc(S(=O)(=O)Nc2cccc3c2O[C@@H](CN(C)CC2CCCCC2)[C@H](C)CN([C@@H](C)CO)C3=O)cc1 | 12.8 | 7.2
COc1ccc(CNC(=O)C[C@H]2C=C[C@@H](NC(=O)Nc3ccc4c(c3)OCO4)[C@@H](CO)O2)cc1 | 9.3 | 5.0
CC(=O)N(C)C[C@@H]1Oc2cc(C#CCC3CCCC3)ccc2S(=O)(=O)N([C@@H](C)CO)C[C@H]1C | ? | nt
CCCNC(=O)Nc1ccc2c(c1)C(=O)N(C)C[C@@H](OC)[C@@H](C)CN(Cc1cncnc1)[C@H](C)CO2 | 2.1 | 5.2
O=C(NC1CCC1)[C@@H]1[C@@H](CO)[C@@H]2Cn3c(ccc(C4=CCCC4)c3=O)[C@H]1N2CC1CC1 | 13.4 | 9.1
CN(C)CC(=O)N1CCCCN2[C@H](CO)[C@H](c3ccc(-c4cccnc4)cc3)[C@@H]2C1 | 11.8 | -0.7
Cc1noc(C)c1S(=O)(=O)Nc1ccc2c(c1)CC(=O)N([C@H](C)CO)C[C@H](C)[C@H](CN(C)Cc1ccc(-c3ccccc3)cc1)O2 | -24.7 | -19.3
C[C@@H]1CN([C@H](C)CO)C(=O)c2cc(NS(=O)(=O)c3cn(C)cn3)ccc2O[C@@H](C)CCCCO[C@@H]1CN(C)Cc1ccc(C(F)(F)F)cc1 | 3.0 | -9.1

Another view of some results above:
> C[C@H](CO)N1C[C@H](C)[C@@H](CN(C)S(=O)(=O)c2cn(C)cn2)Oc2cc(Br)ccc2S1(=O)=O
  Vaccinia stage = 3.4 | Vaccinia stage Venus = -5.0

> COc1cccc(C(=O)Nc2ccc3c(c2)C(=O)N(C)C[C@@H](OC)[C@H](C)CN(C(=O)C2CCCC2)[C@@H](C)CO3)c1
  Vaccinia stage = -23.7 | Vaccinia stage Venus = -19.7

> CN(C)CC(=O)N1CCCCN2[C@H](CO)[C@H](c3ccc(-c4cccnc4)cc3)[C@@H]2C1
  Vaccinia stage = 11.8 | Vaccinia stage Venus = -0.7

> COc1ccc(S(=O)(=O)Nc2cccc3c2O[C@@H](CN(C)CC2CCCCC2)[C@H](C)CN([C@@H](C)CO)C3=O)cc1
  Vaccinia stage = 12.8 | Vaccinia stage Venus = 7.2

Additional records follow.
SMILES | Vaccinia stage | Vaccinia stage Venus
C/C=C/c1ccc2c(c1)O[C@@H](CN(C)C(=O)CC1CC1)[C@H](C)CN([C@H](C)CO)S2(=O)=O | -3.8 | -9.3
CO[C@@H]1CN(C)C(=O)c2cc(NS(=O)(=O)c3cn(C)cn3)ccc2OC[C@@H](C)N(CC2CC2)C[C@H]1C | -3.6 | -3.0
C[C@@H]1CN([C@@H](C)CO)C(=O)Cc2cc(NC(=O)CCC(F)(F)F)ccc2O[C@H]1CN(C)S(C)(=O)=O | 13.8 | 9.0
Cc1ccccc1S(=O)(=O)N1CC(=O)N2[C@@H](CO)[C@H](c3ccc(C#CCC4CCCC4)cc3)[C@@H]2C1 | -19.9 | -23.6
Cc1noc(C)c1NC(=O)N(C)C[C@H]1OCCCC[C@H](C)Oc2ccc(NC(=O)NC(C)C)cc2C(=O)N([C@@H](C)CO)C[C@H]1C | 2.1 | -1.1
O=C(C[C@@H]1CC[C@@H]2[C@H](COC[C@H](O)CN2Cc2ccccc2)O1)NCCc1ccccc1 | -5.6 | 2.7
C[C@@H]1CN([C@@H](C)CO)S(=O)(=O)c2ccc(-c3ccncc3)cc2O[C@@H]1CN(C)S(C)(=O)=O | 3.1 | -1.1
C[C@H]1CN([C@@H](C)CO)S(=O)(=O)c2ccc(Br)cc2O[C@@H]1CN(C)C(=O)c1cnccn1 | 10.8 | 10.2
C[C@H]1CN([C@@H](C)CO)S(=O)(=O)c2ccc(-c3ccc(C(=O)N(C)C)cc3)cc2O[C@H]1CN(C)C(=O)Nc1ccccc1F | 12.8 | 2.7
C[C@H]1CN([C@@H](C)CO)C(=O)Cc2cc(NC(=O)Nc3ccc(C(F)(F)F)cc3)ccc2O[C@@H]1CN(C)C | -31.8 | -15.9
C[C@H](CO)N1C[C@H](C)[C@@H](CN(C)Cc2ccc(C(F)(F)F)cc2)Oc2ccc(NC(=O)CCCCCC(=O)Nc3ccccc3N)cc2C1=O | 8.1 | 1.5
O=C(c1cccnc1)N1CC(=O)N2[C@H](C1)[C@H](c1ccc(-c3ccc(F)cc3)cc1)[C@@H]2CO | -8.5 | -5.6
Cc1ccc(S(=O)(=O)Nc2cccc3c2O[C@H](CN(C)CC2CC2)[C@H](C)CN([C@H](C)CO)C3=O)cc1 | -5.8 | 7.7
COc1cccc(CNC(=O)C[C@H]2CC[C@H](NC(=O)C3CC3)[C@H](CO)O2)c1 | -5.2 | -9.6
O=C(C[C@@H]1C=C[C@H](NC(=O)CC2CC2)[C@H](CO)O1)NCC(F)(F)F | 7.7 | 5.4
O=C(NC[C@@H]1CC[C@@H]2[C@@H](CN2S(=O)(=O)c2ccccc2)O1)NC1CCCCC1 | 6.2 | 6.7
C[C@H](CO)N1C[C@H](C)[C@H](CN(C)S(=O)(=O)c2ccccc2)Oc2c(NC(=O)Nc3ccc4c(c3)OCO4)cccc2C1=O | -7.2 | -12.4
C[C@H](NC(=O)C[C@H]1C[C@H]2c3cc(N(C)C)ccc3O[C@H]2[C@@H](CO)O1)c1ccccc1 | -2.2 | 10.9
COc1ccc(NC(=O)Nc2ccc3c(c2)C(=O)N([C@@H](C)CO)C[C@H](C)[C@@H](CN(C)S(=O)(=O)c2ccc(F)cc2)OCCCC[C@@H](C)O3)cc1 | -9.9 | -0.2
O=C(C1CCOCC1)N1CC(=O)N2[C@@H](CO)[C@H](c3ccc(-c4cccnc4)cc3)[C@@H]2C1 | 21.3 | 21.6
C[C@@H]1CCCCO[C@@H](CN(C)S(=O)(=O)c2ccc(F)cc2)[C@@H](C)CN([C@H](C)CO)C(=O)c2cc(NC(=O)NC3CCCCC3)ccc2O1 | 29.6 | 17.6
C[C@@H]1CN([C@H](C)CO)S(=O)(=O)c2ccc(C#CCN(C)C)cc2O[C@@H]1CN(C)Cc1ccccn1 | 5.9 | 7.6
C[C@@H]1CN([C@H](C)CO)C(=O)c2cc(NC(=O)c3ccncc3)ccc2O[C@@H](C)CCCCO[C@@H]1CN(C)S(=O)(=O)c1cccs1 | -5.5 | 1.4
O=C(C[C@H]1C[C@H]2c3cc(NC(=O)c4cccnc4)ccc3O[C@H]2[C@@H](CO)O1)NCc1cc(F)ccc1F | 14.4 | 17.3
O=C([C@H]1[C@H](CO)[C@H]2Cn3c(cccc3=O)[C@H]2N1Cc1cocn1)N1CCC(Cc2ccccc2)CC1 | 7.2 | 22.7
Cc1noc(C)c1S(=O)(=O)N(C)C[C@H]1Oc2ccc(NC(=O)CCC(F)(F)F)cc2CC(=O)N([C@H](C)CO)C[C@@H]1C | 13.4 | 5.9

Compound activity from PubChem BioAssay.
